# From PubChem BioAssay
# RanGTP-Impb inh: inhibitors of RanGTP-importin-beta interaction, primary screen, biochemical, FRET, CFP-Ran, YFP-importin-beta, homogeneous | 300,000 compounds, 1.1% hits | AID 2216, 2009 | Ran GTPase (GTP-bound) - importin-beta complex | cell-free CFP-Ran/YFP-importin-beta FRET ratio | inhibition, % (concentration not given with the values);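 active means most replicates above 15%; inconclusive means exactly half above 15%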;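 further: 0% = DMSO wells and 100% = Ran loaded with GDP instead of GTP; wells of about 40 µL received 100 nL stock; the first replicate is given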
# T cruzi repl: inhibitors of intracellular T. cruzi growth, primary screen, luminescence, NIH3T3 host cells; T. cruzi beta-gal in NIH3T3, 90 h; inhibition, % (test concentration not listed); 300,000 compounds, 1.4% hits;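 active means mean inhibition across valid replicates above about 55%, limit read from the data; inconclusive means mean below that limit but half or more replicates reach it; inactive means mean below it, under half of replicates reach it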;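 further: signal also drops with host cell toxicity which is not excluded here; 0% = plate median of DMSO wells and 100% = zero luminescence signal; higher percent means less beta-gal luminescence so fewer parasites; stock transfer was 50 nL into about 50 µL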
# Vif A3G: inhibitors of Vif binding to APOBEC3G peptide, primary screen, biochemical, TR-FRET, GST-Vif 1-94, biotin-A3G peptide, dose response retest (AID 1117319); Virion infectivity factor (Human immunodeficiency virus type 1 group M subtype B (isolate …; TR-FRET GST-Vif / biotin-A3G peptide binding; higher % means a stronger effect; test concentration not given here; strong numbers were not always called active; inhibition, %, or IC50 in µM where a hit was titrated; 260,000 compounds, 0.57% hits;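 active means above the screen mean plus three standard deviations and confirmed in dose response; inconclusive means results disagree or hit not tested in dose response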;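 further: Vif residues 1-94 fused to GST binding biotinylated APOBEC3G peptide 110-148; 0% = full assay without inhibitor and 100% = GST in place of GST-Vif; retest series ran down from 100 µM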
# Calb FLC: C. albicans growth inhibition with fluconazole, primary screen, CaCi-2 strain, Alamar Blue fluorescence | C. albicans CaCi-2 (fluconazole-resistant clinical isolate) + fluconazole, 48 h | growth inhibition, % (no concentration beside the values) | 300,000 compounds, 0.57% hits;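 active means most replicates above 75%; inconclusive means exactly half above 75%; inactive means most below 75%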;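 further: all wells also contain fluconazole at 8 µg/ml as a sub-toxic cotreatment; 0% = median of DMSO wells and 100% = median of geldanamycin control wells; wells of about 8 µL received 7.5 nL stock; the first replicate is given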
# Bfl-1 A1 inh: caspase 3/7 activation in MEF A1-2A-BIM cells, primary screen, A1 inhibitor project, cell-based, luminescence, HTS. Caspase-Glo 3/7 luminescence, 3 h; percent of clofoctol response, vehicle zero. caspase activation, % (test concentration not listed). 330,000 compounds, 0.066% hits. AID 2462, 2010;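 active means over half of replicate activation scores above 10%, or exactly half above 10 with the replicate mean above 10; inconclusive means replicate mean below 10 yet half the replicates above 10; inactive means over half of replicates below 10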;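 further: wells of about 30 µL received 50 nL stock; many hits fall short of the cut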
# AF4-AF9 inh: inhibitors of AF4 peptide binding to AF9, primary screen, biochemical, AlphaScreen, biotin-AF4 peptide, FLAG-AF9, single point | AID 651704, 2012 | inhibition, % at 10 µM | 350,000 compounds, 0.47% hits | Protein AF-9 (Homo sapiens), P42568;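 active means every replicate reaching a set inhibition limit, whatever the replicate mean, cut at about 25% in these data; inconclusive means mean inhibition reaches that limit but some replicates miss it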;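 further: 0% = plate neutral control median and 100% = total signal loss; the record names both 10 and 1 µM as test concentration; the first replicate is given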
# Target sequence (P42568 whole entry, looked up): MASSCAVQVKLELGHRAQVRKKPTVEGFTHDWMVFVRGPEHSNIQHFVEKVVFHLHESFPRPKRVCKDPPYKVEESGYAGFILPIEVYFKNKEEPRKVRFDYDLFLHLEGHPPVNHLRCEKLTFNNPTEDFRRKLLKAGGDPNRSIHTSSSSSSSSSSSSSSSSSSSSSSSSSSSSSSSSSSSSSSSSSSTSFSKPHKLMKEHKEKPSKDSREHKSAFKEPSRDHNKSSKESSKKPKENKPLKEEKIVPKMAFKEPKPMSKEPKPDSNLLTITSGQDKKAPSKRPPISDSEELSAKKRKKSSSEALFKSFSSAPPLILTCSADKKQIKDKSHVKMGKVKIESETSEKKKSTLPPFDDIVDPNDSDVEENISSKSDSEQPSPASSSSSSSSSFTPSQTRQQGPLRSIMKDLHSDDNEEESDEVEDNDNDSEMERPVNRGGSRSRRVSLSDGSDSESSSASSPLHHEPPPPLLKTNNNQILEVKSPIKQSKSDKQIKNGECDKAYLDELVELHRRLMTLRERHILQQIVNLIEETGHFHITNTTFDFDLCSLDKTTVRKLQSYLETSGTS
# Beta cell apopt: inhibitors of cytokine-induced beta cell apoptosis, primary screen, luminescence. protection from apoptosis, % (no concentration beside the values). AID 435005, 2010. 300,000 compounds, 0.8% hits. INS-1E cytokine-induced death, ATP luminescence, 48 h; percent of positive-control rescue, neutral wells zero;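 active means all replicates at 75% or more, or half of them and the mean; inconclusive means half reach 75% but not the mean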;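 further: 0% = cytokine-treated negative control wells and 100% = positive control rescue; higher means more ATP so stronger rescue from cytokine killing; wells of about 40 µL received 100 nL stock; the first replicate is given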
# rRNA inh HTS: reduced GFP signal of wild-type E. coli, primary screen, bacterial rRNA inhibitor project, GFP/RFP fluorescence, OD600, single point; E. coli WT GFP vs humanized-ribosome RFP mutants, 24 h; hits give low values; DMSO median 0, no signal -100; AID 720706, 2013; GFP signal change (wild-type ribosome), % (test concentration not listed); 350,000 compounds, 1.6% hits;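 active means significant combined selectivity score with lowered wild-type GFP, culture density cut under 30%, mutant RFP and density less affected; inactive means any of these conditions unmet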; further: one replicate is shown; some compounds called inactive have numbers as strong as hits
# rRNA inh HTS OD600: recorded beside rRNA inh HTS, whose call it bears; OD600 change, %; measured here: OD600 growth;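 optical density of the mix in the first replicate; 0 = DMSO median and -100 = no signal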
# rRNA inh HTS RFP: recorded beside rRNA inh HTS, whose call it bears; RFP signal change, %; measured here: RFP humanized mutant strains;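 first replicate; 0 = DMSO median and -100 = no signal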
# An asterisk follows results filed as active; ? = inconclusive; . = not tested or not shown; & = joins results of further samples.
SMILES,RanGTP-Impb inh,T cruzi repl,Vif A3G,Calb FLC,Bfl-1 A1 inh,AF4-AF9 inh,Beta cell apopt,rRNA inh HTS,rRNA inh HTS OD600,rRNA inh HTS RFP
CN(C)c1ccc(C2SCCN2C(=O)c2ccc([N+](=O)[O-])cc2)cc1 (centres undefined),?,57.9*,22.1%,-5.2,-0.1,.,-6.0,.,.,.
O=c1[nH]ncn2cccc12,?,1.1,-3.9%,?,0.2,.,-3.9,.,.,.
Cn1cc(/C=C(\NC(=O)c2ccccc2Cl)C(=O)N2CCOCC2)c2ccccc21,4.7,18.9,.,-3.1,0.0,4.6,-2.8,4.6,0.0,-1.0
NC(=O)C1CCN(C(=O)CSCc2ccccc2Cl)CC1,2.7,-0.9,0.4%,-0.9,0.8,.,-3.0,.,.,.
COc1cc(OC)cc(C(=O)OCC(=O)Nc2ccc(N3CCCCC3)cc2)c1,-0.6,7.8,3.7%,4.1,-1.0,.,-5.9,.,.,.
CC(=O)Nc1ccc(S(=O)(=O)NNC(=O)COc2cccc(C)c2)cc1,0.5,-14.7,22.1%,5.4,0.6,.,-3.5,.,.,.
COCCNC(=S)NNc1ccccc1[N+](=O)[O-],5.7,4.5,-3.0%,21.7,0.7,15.3,-8.2,6.6,4.2,1.0
C=CCN(C(=O)c1csnn1)C(C(=O)NCc1ccc(F)cc1)c1ccccc1F (centres undefined),0.3,7.0,-5.0%,-8.7,-0.6,2.1,-4.9,-2.2,0.5,0.6
COc1ccc(C(C#N)Nc2ccccc2)cc1 (centres undefined),-1.9,3.2,-8.9%,3.1,0.1,.,-0.2,.,.,.
CC1CN(c2ccc([N+](=O)[O-])nc2)CC(C)O1 (centres undefined),-6.7,17.6,-1.6%,6.7,-0.9,-1.9,3.5,11.4,-15.7,-2.0
O=C(NCc1ccccc1)C1CCCN(c2nc3ccsc3c(=O)s2)C1 (centres undefined),1.3,3.4,-5.0%,-2.5,-0.4,-3.4,5.4,-2.6,1.4,-10.1
CCCC(=O)Nc1nnc(-c2ccc3c(c2)OCO3)s1,3.0,2.1,-6.7%,-3.2,-1.4,.,2.8,17.3,-18.9,-1.3
CCOC(=O)C1CCCN(Cc2nc(C3CC3)no2)C1 (centres undefined),?,-5.5,12.3%,-2.8,2.3,-0.2,0.0,11.7,4.2,-0.4
COc1cc2c(OC)cccc2cc1C(=O)O,3.0,-17.5,3.5%,-12.5,?,.,-2.3,.,.,.
Cc1cc(C)n(C(=O)CNC(=O)c2ccc(Cl)cc2Cl)n1,-1.6,-7.3,.,-14.2,-0.3,-4.4,-4.2,2.9,12.8,-1.4
O=C(O)c1cnn2c(C(F)F)cc(C3CC3)nc12,2.7,-7.0,-0.1%,-1.0,0.1,.,0.2,.,.,.
Cc1ccc(C)c(N2CCN(C(=O)c3ccc(N4CCCC4=O)cc3)CC2)c1,-0.4,0.5,.,1.6,.,.,-16.3,.,.,.
Cc1cc(NC(=O)c2cc(Cl)ccc2Cl)no1,-2.7,-0.1,-0.6%,-24.4,0.3,.,.,.,.,.
c1ccc2c(c1)OCC(CNCC1COc3ccccc3O1)O2 (centres undefined),1.2,3.7,-5.1%,-14.2,1.0,2.7,-3.5,-5.2,0.1,0.5
Cc1ccc(CC2C(=O)N(c3ncccn3)C(=O)C2C)cc1 (centres undefined),6.9,-19.2,4.5%,0.9,-0.8,-7.4,-10.4,6.2,0.5,0.2
Cc1ccccc1C1NC(=S)NC2=C1C(=O)CCC2 (centres undefined),7.9,-9.8,9.8%,1.3,0.5,-3.9,0.9,-0.8,-18.8,2.4
CCC(=O)Nc1ccc(C(=O)Cn2ncc(Cl)c(Cl)c2=O)cc1,2.2,49.5,19.0%,8.2,0.4,0.4,-29.3,1.0,3.8,-0.7
Cc1ccccc1OCC(=O)N/N=C/c1ccncc1,-0.8,-3.1,-2.4%,-0.1,1.1,.,-1.5,.,.,.
COCCn1c(SCC(=O)N2CCc3ccccc32)nc2c(c1=O)SC(C)C2 (centres undefined),-0.7,-0.3,.,7.6,-1.1,0.1,2.4,-16.6,-24.4,-3.4
Cc1ccc(-c2nnc(SC(C)C#N)n2N)cc1 (centres undefined),1.8,-6.8,23.1%,6.4,-0.5,.,-2.3,.,.,.

# Random excerpt: six records from the list, in no set order.
SMILES,RanGTP-Impb inh,T cruzi repl,Vif A3G,Calb FLC,Bfl-1 A1 inh,AF4-AF9 inh,Beta cell apopt,rRNA inh HTS,rRNA inh HTS OD600,rRNA inh HTS RFP
C=CCN(C(=O)c1csnn1)C(C(=O)NCc1ccc(F)cc1)c1ccccc1F (centres undefined),0.3,7.0,-5.0%,-8.7,-0.6,2.1,-4.9,-2.2,0.5,0.6
CN(C)c1ccc(C2SCCN2C(=O)c2ccc([N+](=O)[O-])cc2)cc1 (centres undefined),?,57.9*,22.1%,-5.2,-0.1,.,-6.0,.,.,.
Cn1cc(/C=C(\NC(=O)c2ccccc2Cl)C(=O)N2CCOCC2)c2ccccc21,4.7,18.9,.,-3.1,0.0,4.6,-2.8,4.6,0.0,-1.0
NC(=O)C1CCN(C(=O)CSCc2ccccc2Cl)CC1,2.7,-0.9,0.4%,-0.9,0.8,.,-3.0,.,.,.
CCOC(=O)C1CCCN(Cc2nc(C3CC3)no2)C1 (centres undefined),?,-5.5,12.3%,-2.8,2.3,-0.2,0.0,11.7,4.2,-0.4
CCCC(=O)Nc1nnc(-c2ccc3c(c2)OCO3)s1,3.0,2.1,-6.7%,-3.2,-1.4,.,2.8,17.3,-18.9,-1.3

# Next results:
SMILES,RanGTP-Impb inh,T cruzi repl,Vif A3G,Calb FLC,Bfl-1 A1 inh,AF4-AF9 inh,Beta cell apopt,rRNA inh HTS,rRNA inh HTS OD600,rRNA inh HTS RFP
CCOC(=O)C[N+]1(C)CCN(C(C)=O)CC1,3.3,-16.4,.,25.3,0.1,-0.8,-4.4,8.4,8.3,0.0
Fc1cccc(Cl)c1CSc1ccc(-c2ccco2)nn1,0.5,11.1,8.1%,-2.5,0.3,-0.7,-10.6,-21.1*,-7.6*,0.8*
CC(C)(C)C1=NN(C(=O)c2ccccc2)C(O)(C(C)(C)C)C1 (centres undefined),8.7,10.5,2.4%,-8.7,0.4,.,-2.8,.,.,.
CC(CC1CC(C)(C)OC1=O)C(=O)Nc1nncs1 (centres undefined),0.3,-11.2,5.0%,4.1,-0.3,.,-5.6,.,.,.
Cc1cc(C)n(-c2nc(C)nc3c2cnn3-c2ccccc2)n1,-4.1,-8.5,?,-13.2,0.7,11.9,-3.9,-11.5,4.2,-5.0
O=C(CSc1n[nH]c(-c2ccco2)n1)Nc1ccccc1,?,2.8,5.5%,-4.2,0.0,3.6,.,8.6,-4.6,-0.1
NC(=O)/C(=C\c1ccccc1)NC(=O)/C=C/c1ccccc1,0.2,-13.5,5.1%,-2.6,0.7,.,4.9,.,.,.
CC1=C(C(=O)Nc2cccc(C)c2C)C(c2cccs2)NC(=S)N1 (centres undefined),0.6,-7.2,.,0.3,0.5,.,-2.5,.,.,.
COc1ccccc1-n1c(SCC(=O)Nc2nnc(C)s2)nc2c(c1=O)SCC2,-0.6,-12.6,-3.1%&6.9%,2.7,1.2,.,-8.6,.,.,.
COc1c(S(=O)(=O)N2CCN(C)CC2)ccc(Cl)c1Cl,5.7,-10.5,.,14.6,0.4,0.1,.,1.6,-3.5,3.0
CCCCCCCCN1[C@@H](CC(=O)OC)c2cc(C(F)(F)F)ccc2S1(=O)=O,9.6,15.6,.,-9.0,-1.8,.,3.0,-1.7,-0.8,0.7
CCn1c(SCC(=O)N/N=C/c2ccccc2OCC(=O)O)nnc1-c1ccc(C)cc1,-3.8,-4.8,13.2%,-6.1,0.0,-1.3,-4.1,7.4,1.0,-6.3
Cc1cccc(N(C(=O)c2sc(C)nc2C)C(C(=O)NCC2CCCO2)c2ccccc2)c1 (centres undefined),0.5,0.6,24.6%,4.3,1.0,-18.0,1.3,-4.4,-2.7,7.0
COC(=O)[C@@]12CCCCN1[C@H](c1ccc(-c3cccc(Cl)c3)cc1)[C@H]1C(=O)N(C)C(=O)[C@H]12,4.4,-13.3,.,8.7,0.3,-13.9,5.4,6.8,8.7,8.9
Nc1cnc(Nc2ccc(Br)cc2)nc1N,-3.2,6.1,0.2%,-2.7,-1.1,22.6,11.2,5.0,4.2,0.7
O=C(Nc1ccc(-c2ccc3nncn3n2)cc1)c1ccc(Br)o1,-0.3,-9.4,-12.7%,-0.4,-0.1,-17.3,1.7,12.9,7.5,-0.9
Cc1ccc(C(=O)COC(=O)COc2ccccc2O)cc1C,.,.,.,.,0.0,-2.8,-6.1,8.7,10.2,-1.6
Cc1ccc(-c2nc(CS(=O)CC(=O)NC3CCCC(C)C3C)c(C)o2)cc1 (centres undefined),-1.2,15.5,-6.5%,-1.0,1.3,-0.2,-5.3,1.1,0.5,7.0
CCN(CC)S(=O)(=O)c1cccc(C(=O)OCC(=O)Nc2ccccc2OC(F)F)c1,-0.3,-11.4,-2.8%,-3.2,0.2,.,-0.6,.,.,.
Fc1ccccc1Cn1nnc2c(NCc3ccccn3)ncnc21,?,10.2,15.2%,6.2,-0.7,.,-1.2,.,.,.
S=C(NCc1ccccc1)NNc1ccccc1,6.8,-20.3,-9.3%,10.8,0.6,10.3,-2.7,.,.,.
COc1ccc(NC(=O)C(c2ccccn2)N(C(C)=O)c2ccc(C)cc2)cc1 (centres undefined),-2.0,-11.4,.,-1.1,-0.2,.,-0.4,.,.,.
CC1(C)CC(=O)C=C(c2cccnc2)C1,3.9,-21.7,.,20.9,-0.3,.,-8.2,.,.,.
CCc1noc(C)c1C(=O)N1CCN(S(=O)(=O)c2cccs2)CC1,4.8,-26.3,-9.7%,-2.5,-0.2,3.4,-10.4,-0.8,-1.5,-1.8
O=S1(=O)CCN2N=C(C34CC5CC(CC(C5)C3)C4)SC2=N1,?,-0.2,-10.7%,-30.1,1.5,-0.5,6.1,10.4,7.0,1.1
O=C(Nc1nccs1)c1cc(S(=O)(=O)N2CCOCC2)c(Cl)cc1Cl,5.1,10.2,-2.4%,1.9,0.7,.,-0.1,.,.,.

# These rows are one share of the data; the hit share may differ from the screen's.
